PINK1 modulator: A Quantitative High throughput Screen to Identify Chemical Modulators of PINK1 Expression; actives 0.2% (n = 410,000); Potency, µM (top dose mostly 76.6 µM), for inactives: top-dose activation (PINK1 increase), actives largely listed as activators; AID 624263, 2012; PINK1 immunofluorescence, high-content cytometry, 24 h; active = well fitted activation curve with a large enough effect; inconclusive = small, poorly fitted or top-dose-only effect; inactive = flat fitted curve, though single readings scatter; cell line not stated here;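 note: potency is the fitted concentration of half-maximal effect; % of control where 0% means no effect; nearly all actives have a fitted effect of over 65% in size; a mitochondrial uncoupler was the plate control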
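PINK1 protein, normally rapidly degraded, was detected by immunofluorescence after 24 hour compound treatment of a stable cell line. Titration data (5 concentrations) came from laser-scanning cytometry, with CCCP-treated wells as controls.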
D2 ag: Beta-Arrestin HTS for Positive Allosteric Modulators of the Human D2 Dopamine Receptor: Agonists. DiscoveRx PathHunter D2 beta-arrestin, luminescence, 90 min; 100% = 57 uM dopamine signal. AID 624465, 2012. actives 0.084% (n = 360,000). activation, % (no concentration beside the values). D(2) dopamine receptor (Homo sapiens), P14416; in the data active = activation above about 40%; inconclusive = about 15% to 40%; inactive = below about 15%; note: compound concentration not given in the record; the text of the record calls up to 30% inactive
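Agonist mode: compounds alone added to overnight-plated D2 PathHunter cells for 90 min at 37 C, with 57 uM final dopamine (EC100) defining full response. Beta-arrestin recruitment detected by chemiluminescent reagent, read after 1 h at ambient temperature.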
TRPV1 potentiator: HTS Assay for Compounds that Act as Potentiators of the Vanilloid Receptor 1. potentiation, % at 8.33 µM. TRPV1-expressing cells, Fluo-8 calcium influx, capsaicin EC20 potentiation; host cell line not named in the record; control for the full effect not named in the record. actives 0.02% (n = 320,000); active means potentiation above 80%; inconclusive means 30% to 80%; inactive means below 30%; note: 0% is about no effect
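TRPV1-expressing cells were cultured overnight at 35.5C and loaded with Fluo-8 calcium dye for 40 to 90 min at room temperature. After a 10 s baseline, compound was added and calcium influx was read kinetically for 3 min (ex 480/em 520 nm).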
D2 PAM: Beta-Arrestin HTS for Positive Allosteric Modulators of the Human D2 Dopamine Receptor: Potentiators | DiscoveRx D2 beta-arrestin cells, luminescence, 90 min; 100% = 57 uM dopamine signal | AID 624464, 2012 | actives 0.23% (n = 360,000) | potentiation, % (concentration not given with the values) | D(2) dopamine receptor (Homo sapiens), P14416; active = potentiation of 50% or more; inconclusive = 30% to 50%; inactive = 30% or less;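 note: compound concentration not given in the record; tested on top of an EC20 dose of dopamine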
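PathHunter beta-arrestin assay in DiscoveRx D2 cells. Compounds were added with an EC20 of dopamine (50 nM final) for 90 min at 37 deg C. Luminescence was read 1 h after detection reagent, with 57 uM dopamine as the EC100 control.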
CtBP-E1A blk: qHTS Assay for Inhibitors of the CtBP/E1A Interaction; AlphaScreen GST-E1A/His-CtBP binding, 1536-well; hits give low values; control for the full effect not named in the record; activity change, % (no concentration beside the values); actives 0.49% (n = 340,000); AID 651724, 2012; in the data active means activity change below about -65%; inconclusive means about -30% to -65%; inactive means above about -30%; note: % is set by controls: 0 for no effect and ±100 for the full control effect; compound concentration not given in the record
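Homogeneous bead-based format: GST-tagged E1A captured on glutathione donor beads, His-tagged CtBP on nickel acceptor beads; compounds precede bead addition by 2 h at 37 °C.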
Sfp inh: qHTS Assay for Inhibitors of Bacillus subtilis Sfp phosphopantetheinyl transferase (PPTase). 4'-phosphopantetheinyl transferase ffp (Bacillus subtilis), Q9F4F7. Biochemical Sfp PPTase activity, qHTS. Potency, µM, for the others: max response, negative = inhibition, actives largely listed as inhibitors. actives 3.5% (n = 310,000). AID 1490, 2009; active = well fitted inhibition curve with a large enough effect; inconclusive = small, poorly fitted or top-dose-only effect, or another doubt; inactive = no such curve, though single readings can be large or run the other way;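 note: the enzyme is Sfp with the accession as filed and its product quenches rhodamine fluorescence; potency is the fitted concentration of half-maximal effect; 0% = enzyme reaction without inhibitor and -100% = no enzyme wells; top concentration of the series not given in the record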
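With Hepes-Na pH 7.6 buffer containing 10 mM MgCl2, Sfp (15 nM) modified BHQ-2-YbbR (12.5 uM) using rhodamine-CoA (5 uM). Two reads 30 minutes apart at 525/598 nm yielded each well's rate.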
Six1-Eya2 inh: qHTS Assay for Inhibitors of the Six1/Eya2 Interaction. Homeobox protein SIX1 (Homo sapiens) + Protein phosphatase EYA2 (Homo sapiens), …. AlphaScreen GST-Six1/His-Eya2 binding, biochemical; hits give low values; control for the full effect not named in the record. activity change, % (test concentration not listed). actives 0.56% (n = 360,000). AID 651725, 2012; in the data active = activity change below about -65%; inconclusive = about -30% to -65%; inactive = above about -30%; note: % is set by controls: 0 for no effect and ±100 for the full control effect; compound concentration not given in the record
Target sequence (O00167 whole entry, looked up): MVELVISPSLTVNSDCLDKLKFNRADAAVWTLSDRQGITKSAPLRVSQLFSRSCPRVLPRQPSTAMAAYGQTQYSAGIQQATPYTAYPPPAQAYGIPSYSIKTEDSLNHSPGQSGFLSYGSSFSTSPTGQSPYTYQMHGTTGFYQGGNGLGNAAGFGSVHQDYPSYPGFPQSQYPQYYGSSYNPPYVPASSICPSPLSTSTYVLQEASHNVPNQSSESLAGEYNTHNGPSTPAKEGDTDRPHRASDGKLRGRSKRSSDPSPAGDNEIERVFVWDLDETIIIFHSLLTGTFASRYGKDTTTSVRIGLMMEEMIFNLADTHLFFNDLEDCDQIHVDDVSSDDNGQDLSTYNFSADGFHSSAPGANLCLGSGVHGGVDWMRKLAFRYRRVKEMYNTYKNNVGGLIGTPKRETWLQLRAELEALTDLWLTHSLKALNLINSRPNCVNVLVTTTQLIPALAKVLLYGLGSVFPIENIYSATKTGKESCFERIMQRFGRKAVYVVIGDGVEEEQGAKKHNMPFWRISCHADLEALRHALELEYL
Target sequence (Q15475 whole entry, looked up): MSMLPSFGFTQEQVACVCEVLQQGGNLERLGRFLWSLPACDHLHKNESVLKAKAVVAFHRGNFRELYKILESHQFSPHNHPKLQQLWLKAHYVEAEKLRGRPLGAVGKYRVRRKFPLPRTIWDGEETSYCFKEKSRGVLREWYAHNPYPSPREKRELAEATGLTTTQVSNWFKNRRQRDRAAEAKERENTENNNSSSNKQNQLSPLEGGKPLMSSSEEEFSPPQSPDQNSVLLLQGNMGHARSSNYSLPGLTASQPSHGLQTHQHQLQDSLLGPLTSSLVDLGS
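AlphaScreen luminescence read after one hour at 37 °C in darkness. Pin-transferred compounds met GST-Six1 and His-Eya2 protein (5X stock 250 nM/500 nM) plus glutathione donor and Ni-chelate acceptor beads (5X, 50 ug/mL).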
An asterisk follows results filed as active; & = joins results of further samples; [ ] = dose if it differs, or a comment.

`CCc1nc2ccccc2n1CCC(=O)O` gave PINK1 modulator 9.7%[38.3 µM], D2 ag -2.5, TRPV1 potentiator 23.1, D2 PAM -0.2, CtBP-E1A blk -2.5, Sfp inh 8.2% and Six1-Eya2 inh 9.1.
Screening COc1cc(CNC(=O)c2cc(-c3cc(F)ccc3OC(C)C)n[nH]2)cc(OC)c1 returned PINK1 modulator 0.4%, D2 ag -2.1, D2 PAM -3.6, CtBP-E1A blk -8.3 and Six1-Eya2 inh -15.6.
For C#CC1(O)CC(C)NCC1(C)CCC#N (stereo not drawn) the results were PINK1 modulator 1.2%, D2 ag -3.1, TRPV1 potentiator -2.3, D2 PAM -7.5, CtBP-E1A blk 2.6, Sfp inh 19.6% and Six1-Eya2 inh 8.2.
For COc1ccc(N2CCCCn3c2nc2c3c(=O)[nH]c(=O)n2C)cc1 the results were PINK1 modulator -0.8%, D2 ag -4.6, TRPV1 potentiator -2.3, D2 PAM 0.8, CtBP-E1A blk -6.3, Sfp inh 16.0% and Six1-Eya2 inh 2.9.
Screening COc1ncc(-c2ccc(N3C(c4ccc([N+](=O)[O-])cc4)=Cc4ccccc4C3CC(C)=O)cc2)cn1 (stereo not drawn) returned PINK1 modulator 0.9%, CtBP-E1A blk -2.2 and Six1-Eya2 inh -12.7.
Cc1c(N2C(=O)CSC2c2ccccc2)c(=O)n(-c2ccccc2)n1C (stereo not drawn) was read as PINK1 modulator 0.3%, D2 ag 2.2, TRPV1 potentiator 13.0, D2 PAM -12.1, CtBP-E1A blk -1.9, Sfp inh 16.9% and Six1-Eya2 inh 8.9.
CCC1CCCCN1CCCNC(=O)c1cn(CC)c2ccc(S(=O)(=O)N3CCc4ccccc4C3)cc2c1=O (stereo not drawn) was read as PINK1 modulator -1.1%, D2 ag -2.7, TRPV1 potentiator -1.3, D2 PAM -5.2, CtBP-E1A blk 0.0, Sfp inh -4.4% and Six1-Eya2 inh 3.8.
For O=C(COC(=O)Cc1n[nH]c(=O)c2ccccc12)Nc1ccc(Cl)cn1 the results were PINK1 modulator -0.9%, D2 ag -5.2, TRPV1 potentiator -11.4, D2 PAM 1.3, CtBP-E1A blk -6.5 and Six1-Eya2 inh -0.7.
`O=C(Cc1cccs1)Nc1ccc(C(=O)O)cc1` gave PINK1 modulator -1.0%, D2 ag -0.1, TRPV1 potentiator 1.2, D2 PAM -6.2, CtBP-E1A blk 0.2, Sfp inh 1.9% and Six1-Eya2 inh 2.8.
For CCN(CC)S(=O)(=O)c1ccc(N2CCCC2)c(NC(=O)CN2C(=O)NC3(CCCC3)C2=O)c1 the results were PINK1 modulator 0.4%, D2 ag -1.3, TRPV1 potentiator 1.6, D2 PAM -15.4, CtBP-E1A blk -4.1 and Six1-Eya2 inh 4.3.
Screening O=C(NC1(C(F)(F)F)NC(=O)N(C2CCCCC2)C1=O)c1cccs1 (stereo not drawn) returned PINK1 modulator -1.0%[38.3 µM], D2 ag 0.7, TRPV1 potentiator -9.2, D2 PAM 3.8, CtBP-E1A blk -12.7, Sfp inh 22.3% and Six1-Eya2 inh 0.1.
CCc1ccc(C2C(C#N)=C(N)OC3=C2C(=O)CCC3)s1 (stereo not drawn) was read as PINK1 modulator -0.9%, D2 ag -1.7, TRPV1 potentiator -4.6, D2 PAM -8.3, CtBP-E1A blk 4.1, Sfp inh -9.3% and Six1-Eya2 inh 3.7.
For CCOc1ccc(NC(=O)CCS(=O)(=O)c2cccc3nsnc23)cc1 the results were PINK1 modulator 1.5%, D2 ag -2.4, TRPV1 potentiator 6.9, D2 PAM 4.4, CtBP-E1A blk -0.9, Sfp inh 1.6% and Six1-Eya2 inh -4.9.
`CCOc1ccc(-c2nnc3ccc(SCC(=O)Nc4nc5ccccc5s4)nn23)cc1` gave PINK1 modulator 8.3%, D2 ag 0.3, TRPV1 potentiator -6.7, D2 PAM 11.3, CtBP-E1A blk -8.9, Sfp inh inconclusive and Six1-Eya2 inh -6.2.
`O=C(Nc1ccc(O)cc1)c1ccc(NC(=O)c2cccs2)cc1` gave PINK1 modulator 6.9%, D2 ag 3.3, TRPV1 potentiator -17.5, D2 PAM 3.3, CtBP-E1A blk -5.5, Sfp inh -8.8% and Six1-Eya2 inh -13.5.
For Cc1c(N=Cc2c(O)n(C3CCCCC3)c(=O)[nH]c2=O)c(=O)n(-c2ccccc2)n1C the results were PINK1 modulator 16.1%, D2 ag -2.8, TRPV1 potentiator 2.4, D2 PAM -6.9, CtBP-E1A blk 0.6, Sfp inh -10.2% and Six1-Eya2 inh 11.6.
COC(=O)COc1cccc2c(=O)n(CC(=O)Nc3ccc4c(c3)OCCO4)ccc12 was read as PINK1 modulator 4.5%, D2 ag -2.7, TRPV1 potentiator -3.7, D2 PAM 2.8, CtBP-E1A blk -14.1, Sfp inh -20.4% and Six1-Eya2 inh -0.5.
For Cc1ccnc(NC(=O)Cc2ccc(F)cc2)n1 the results were PINK1 modulator 2.3%, D2 ag 0.8, TRPV1 potentiator 6.4, D2 PAM 2.4, CtBP-E1A blk 1.2, Sfp inh 0.9% and Six1-Eya2 inh 0.9.
Screening O=C(c1ccc(Cl)c([N+](=O)[O-])c1)N1CCN(C(=O)c2ccco2)CC1 returned PINK1 modulator 4.0%, D2 ag -3.5, TRPV1 potentiator 4.7, D2 PAM -35.7, Sfp inh 26.5% and Six1-Eya2 inh -0.9.
Screening FC(F)(F)c1cnc(COc2ccc(Cl)cc2Cl)c(Cl)c1 returned PINK1 modulator inconclusive, D2 ag -7.6, TRPV1 potentiator -8.2, D2 PAM -5.7, CtBP-E1A blk 38.9, Sfp inh -3.7% and Six1-Eya2 inh 48.0.
O=C(O)COc1ccc(Br)cc1/C=N/O was read as PINK1 modulator -1.3%, D2 ag 0.3, TRPV1 potentiator 4.9, D2 PAM -4.4, CtBP-E1A blk -3.0, Sfp inh 4.1% and Six1-Eya2 inh 5.3.
`COc1ncnc2c1ncn2CCCN1CCN(Cc2ccc(C)cc2)CC1` gave PINK1 modulator 0.3%, D2 ag -2.5, D2 PAM -11.3, CtBP-E1A blk 4.4 and Six1-Eya2 inh 1.8.
For O=C(OCc1nc2scc(-c3ccccc3)c2c(=O)[nH]1)c1cccc([N+](=O)[O-])c1 the results were PINK1 modulator 0.8%, D2 ag -2.6, TRPV1 potentiator inconclusive, D2 PAM -3.4, CtBP-E1A blk -26.2, Sfp inh inconclusive and Six1-Eya2 inh -7.4.
COc1cc(C2C(C(C)=O)=C(O)C(=O)N2CCc2ccc(OC)c(OC)c2)ccc1O (stereo not drawn) was read as PINK1 modulator 0.8%, D2 ag 1.9, TRPV1 potentiator 3.4, D2 PAM 10.1, CtBP-E1A blk -0.8, Sfp inh -14.9% and Six1-Eya2 inh 4.2.
O=C(CC(Cc1ccccc1)c1ccco1)NC1CCCCC1 (stereo not drawn) was read as PINK1 modulator -1.4%, D2 ag -4.8, TRPV1 potentiator -14.5, D2 PAM -27.4, CtBP-E1A blk -0.1, Sfp inh 7.5% and Six1-Eya2 inh -3.3.
For COc1ccc(/C=C(\C#N)C(=O)OCC(=O)NC(=O)NCCC(C)C)cc1 the results were PINK1 modulator 0.5%, D2 ag -3.3, TRPV1 potentiator 6.8, D2 PAM -7.6, Sfp inh 22.2% and Six1-Eya2 inh 7.5.
For CC(C)C[C@@H](CNCC(=O)[C@H](C)NC(=O)c1[nH]cnc1C(=O)N[C@@H](C)CN)NC(=O)c1nc[nH]c1C(=O)N[C@@H](Cc1ccccc1)C(=O)O the results were PINK1 modulator -0.2%, D2 ag -1.5, D2 PAM -6.7, CtBP-E1A blk -4.7 and Six1-Eya2 inh -5.1.
Screening COc1ccc(C2/C=C\CN(S(=O)(=O)c3cccc4cccnc34)CC(=O)N2Cc2ccc(F)cc2)cc1 (stereo not drawn) returned PINK1 modulator 2.6%, D2 ag -4.3, TRPV1 potentiator -2.3, D2 PAM -7.7, CtBP-E1A blk -5.8, Sfp inh 13.0%&3.0% and Six1-Eya2 inh -0.2.
`CC(O)[C@H]1CNCCN1CCc1cccc2ccccc12` (stereo partly drawn) gave PINK1 modulator 0.0%, D2 ag -3.8, TRPV1 potentiator 0.2, D2 PAM -17.6, CtBP-E1A blk -2.9 and Six1-Eya2 inh 8.4.
For CCc1nnc(NC(=O)CSc2nc3c([nH]c4ccccc43)c(=O)n2CCOC)s1 the results were PINK1 modulator 5.7%, D2 ag -0.8, TRPV1 potentiator 6.3, D2 PAM -9.7, CtBP-E1A blk 3.0, Sfp inh -11.6% and Six1-Eya2 inh -4.6.
COc1cc(C(=O)NNC(=O)Cc2ccc(S(=O)(=O)N3CCOCC3)s2)cc(OC)c1OC was read as PINK1 modulator 0.5%, D2 ag 2.2, TRPV1 potentiator 1.4, D2 PAM -3.4, CtBP-E1A blk 10.0, Sfp inh 6.4% and Six1-Eya2 inh -5.7.
`O=C(Cn1nnc2ccccc21)C1CC1` gave PINK1 modulator -2.3%, D2 ag 2.0, TRPV1 potentiator -15.5, D2 PAM -2.4, CtBP-E1A blk -3.2, Sfp inh 21.8% and Six1-Eya2 inh -2.2.
CC(=O)Nc1cc2c(cc1[N+](=O)[O-])OCCO2 was read as PINK1 modulator -0.3%, D2 ag -1.0, TRPV1 potentiator -0.1, D2 PAM -6.5, CtBP-E1A blk -7.0, Sfp inh -2.8% and Six1-Eya2 inh -4.9.
CC(C)C[C@@H](CNCC(=O)[C@H](CC(C)C)NC(=O)c1[nH]cnc1C(=O)N[C@@H](C)CN)NC(=O)c1nc[nH]c1C(=O)N[C@@H](Cc1ccccc1)C(=O)O was read as PINK1 modulator 1.4%, D2 ag -3.6, D2 PAM -9.2, CtBP-E1A blk -17.8 and Six1-Eya2 inh -15.5.
COc1cc(NC(=O)c2cccnc2SC)cc(OC)c1OC was read as PINK1 modulator 0.1%, D2 ag -1.0, TRPV1 potentiator inconclusive, D2 PAM -4.8, CtBP-E1A blk 0.0, Sfp inh 17.6% and Six1-Eya2 inh -4.6.
